HIV TAR-Tat: TAR RNA-Tat peptide displacers, HIV-1, primary screen, biochemical, FRET, FAM/TAMRA-labeled Tat; HIV-1 TAR RNA, Tat peptide displacement FRET; stronger effect = higher value; z-score (concentration not given with the values); actives 0.6% (n = 100,000); AID 1259389, 2018;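 further: score is relative to mean and SD of negative controls; some compounds called inactive have numbers as strong as hits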
CDC25B CDK2 inh: primary biochemical HTRF screen for blockers of M-phase inducer phosphatase 2 binding to CDK2/cyclin A. HTRF CDC25B-CDK2/CyclinA binding, anti-His/anti-Flag; stronger effect = higher value. P30305+P24941. z-score (concentration not given with the values). actives 0.72% (n = 94,000);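 further: score is relative to mean and SD of negative controls; strong numbers were not always called active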
* marks the source's active call; other numbers are inactive results; . = not tested or not shown.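 How the source made its calls: active means z-score from 3 up in half or more of its runs; inactive means the rest.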

SMILES,HIV TAR-Tat,CDC25B CDK2 inh
CC1CN(C(=O)CCC(=O)N2CCN(C)CC2)c2ccccc2O1 (stereo unspecified),0.09,-2.12
CC(O)c1ccccc1-c1ccccc1C(C)O (stereo unspecified),.,-1.37
COc1ccc(C(=O)CCc2nc3ccccc3s2)cc1,1.43,-1.36
CNC(=O)c1cccc(NC(=O)C2=CSCCO2)c1,2.06,.
COCCCN1C(=O)C(=O)/C(=C(\O)c2ccc(Cl)cc2)C12C(=O)N(C)c1ccccc12 (stereo unspecified),-0.69,0.51
Nc1ccc2nc(SCC(=O)Nc3ccccc3)sc2c1,0.93,-1.7
COc1ccc(CC(C)=C(C#N)C#N)cc1OC,.,-2.38
Cn1c(=O)c2c(nc(Sc3ccccc3NC(=O)c3cccs3)n2C)n(C)c1=O,1.2,-1.32
CC(C)OCCCNc1nc2c(S(=O)(=O)c3ccc(C(C)C)cc3)nnn2c2ccccc12,1.13,-1.03
COc1ccc(OC)c(Nc2nc3ccccc3c3nnc(C)n23)c1,0.91,.
CC(C)N(C(=O)CSc1cn(CC(=O)N2CCCCC2)c2ccccc12)C(C)C,-0.03,.
CCCCOC(=O)C1=C(C)NC2=C(C(=O)CCC2)C1c1cc(OC)ccc1OC (stereo unspecified),0.68,-2.97
O=S1(=O)CCC(S(=O)(=O)N2CCCCC2)C1 (stereo unspecified),.,-1.02
CC1CCc2nn(CC(=O)NCCCN3CCCCC3)cc2C1 (stereo unspecified),.,0.13
CCN(CC)Cc1cccc2c1COC2,0.93,-0.82
CC(=O)N1c2ccc(S(=O)(=O)NCC3CCC(C(=O)Nc4nc(C)cs4)CC3)cc2CC1C (stereo unspecified),1.5,.
NC(=O)Cn1c(=O)n(Cc2ccccc2)c(=O)c2oc3ccccc3c21,1.81,.
O=C(Nc1ccc2c(c1)OCO2)C1CCN(C(=O)c2ccc3c(c2)nnn3C2CCCC2)CC1,1.15,.
CCCN1C(=O)c2[nH]nc(-c3ccccc3O)c2C1c1cccc(O)c1 (stereo unspecified),-0.9,-2.28
COc1ccc(C(=O)Nc2ccc(O)c(-c3nc4cc(Cl)ccc4o3)c2)cc1,.,-4.51
Cc1c(C(=O)N2CCCCC2c2cccnc2)sc2nc3n(c(=O)c12)CCCC3 (stereo unspecified),1.64,.
O=C1C(C(=O)N2CCc3ccccc32)CCN1c1ccc(F)cc1 (stereo unspecified),0.46,.
O=C(CCn1c(=O)sc2ccccc21)NC1=NCCS1,.,-1.7
Cc1nc2ccccn2c(=O)c1Cc1nnc(SCC(=O)Nc2ccc(Cl)cc2)n1C,-0.6,-0.52
CO[C@@H]1[C@@H](OC(N)=O)[C@@H](O)[C@H](Oc2ccc3c(O)c(NC(=O)c4ccc(O)c(CC=C(C)C)c4)c(=O)oc3c2C)OC1(C)C,1.35,.
O=C(C1=C(Nc2ccc(N3CCOCC3)c(Cl)c2)c2ccccc2S1(=O)=O)N1CCOCC1,0.92,.
N#C/C(=C\c1cc(Cl)sc1Cl)S(=O)(=O)c1ccccc1,.,-0.36
C=CCn1c(=S)oc2ccccc21,.,0.04
CCn1c(SCC(=O)c2ccccc2)nc2sc3c(c2c1=O)CCC3,4.22,-6.65
CC(=O)OC1=CN(Cc2ccccc2)S(=O)(=O)c2ccccc21,-0.41,0.04

Some of the entries above in a different format:
Order of results – HIV TAR-Tat | CDC25B CDK2 inh
- O=C(CCn1c(=O)sc2ccccc21)NC1=NCCS1
    . | -1.7
- O=C(C1=C(Nc2ccc(N3CCOCC3)c(Cl)c2)c2ccccc2S1(=O)=O)N1CCOCC1
    0.92 | .
- Cc1nc2ccccn2c(=O)c1Cc1nnc(SCC(=O)Nc2ccc(Cl)cc2)n1C
    -0.6 | -0.52
- O=C1C(C(=O)N2CCc3ccccc32)CCN1c1ccc(F)cc1 (stereo unspecified)
    0.46 | .
- CC(=O)OC1=CN(Cc2ccccc2)S(=O)(=O)c2ccccc21
    -0.41 | 0.04

(more compounds)
SMILES,HIV TAR-Tat,CDC25B CDK2 inh
CC1CCN(C(=O)c2nn3c(c2Cl)NC(c2ccco2)CC3C(F)(F)F)CC1 (stereo unspecified),-2.71,-1.21
Cc1ccc(-c2cn3ccccc3n2)cc1NS(=O)(=O)c1ccc(Cl)cc1,0.68,-0.49
COCCn1cnc2c(oc3nc4c(cc32)CCCC4)c1=O,0.48,.
Cc1ccc(-c2noc(CN(C)S(=O)(=O)c3ccc(Cl)cc3)n2)cc1,1.19,-0.78
O=C(NCc1cccc(Br)c1)C1=Cc2sc3c(c2CS1)CCCC3,-1.47,.
O=C(CN1C(=O)c2ccccc2S1(=O)=O)NC(c1ccccc1)c1ccccc1,0.85,0.2
CC(C)C1Cc2c(sc3nc(SCC(=O)c4ccc(F)cc4)nc(N)c23)CO1 (stereo unspecified),-3.61,-7.1
O=c1oc2ccccc2n1Cc1ccc(OCc2ccccc2)cc1,1.43,-0.4
Nc1nc2c(-c3ccc([N+](=O)[O-])cc3)nnn2c2ccccc12,.,1.08
Cc1sc2c(c1C)CSC(C(=O)NCCc1c[nH]c3ccccc13)=C2,-1.64,.
Cc1ccc(N2CCN(c3cc(C)nc4ncnn34)CC2)c(C)c1,-2.14,0.64
CCOc1cc(C2SC(NC(C)=O)=NN2C(C)=O)ccc1OC(=O)c1ccc(C(C)(C)C)cc1 (stereo unspecified),1.48,-1.41
Cn1cnc2c(=O)oc3ccc(S(=O)(=O)N4CCN(c5ccccc5F)CC4)cc3c21,1.68,.
COc1ccc(-c2cn(-c3ccc(C)c(C)c3)c(=O)[nH]2)cc1OC,0.19,-1.96
CCOc1ccc(NC2=NS(=O)(=O)C(c3ccc(C(C)C)cc3)=C2C)cc1,-1.55,-0.85
O=C(COc1ccccc1)Oc1cccc(-n2cnnn2)c1,-0.08,-0.6
Cc1[nH]n(-c2ccccc2)c(=O)c1C1(C(F)(F)F)C(=O)N(c2ccccc2)C2=C1C(=O)CC(C)(C)C2 (stereo unspecified),-0.06,-1.72
CC12CC3CC(C)(C1)CC(OCCNC(=O)c1ccc4c(=O)n5c(nc4c1)CCCCC5)(C3)C2,.,-1.73
O=C1N(Cc2c(F)cccc2Cl)C2CS(=O)(=O)CC2N1c1ccccc1 (stereo unspecified),0.29,.
O=C(c1ccccc1Br)N1N=C2CCCCCC2C1(O)C(F)(F)F (stereo unspecified),.,-2.37
Nc1ccc(Cl)c(-c2nc3ccccc3o2)c1,-0.4,-1.86
O=c1oc2ccccc2c2c1nnn2C1CCCCC1,0.91,-0.76
Clc1ccccc1CN1CCN(Cc2c[nH]c3ccccc23)CC1,1.06,0.37
COc1cc(/C=C2\N=C(c3ccc(Br)cc3)OC2=O)ccc1OC(=O)c1cccc([N+](=O)[O-])c1,.,-1.54
CCOC(=O)c1cc(CSc2n[nH]c(=O)n2-c2ccccc2)nn1C(C)(C)C,.,0.12
CC(C)(C)OC(=O)N1CCN(CCN=Cc2ccccc2)CC1,.,-0.04
CCOC(=O)C1CCN(S(=O)(=O)c2c(C)[nH]c(C)c2C(=O)N2CCCCC2)CC1,-0.94,.
CN(C)c1cc(NCCN2CCOCC2)c2c3c(onc13)-c1ccccc1C2=O,0.62,-1.5
O=C(C1CCN(c2nnc(-n3cccc3)s2)CC1)N1CCN(c2ccc(F)cc2)CC1,0.26,-1.66
Cc1ccc(NC(=O)Nc2c(C)n(C)n(-c3ccccc3)c2=O)c(Cl)c1,-0.48,-1.89
NS(=O)(=O)c1ccc(CCNC(=O)NC2COc3ccccc3C2)cc1 (stereo unspecified),2.11,.
CN(CCNC(=O)c1cc(-c2ccccn2)nc2ccccc12)C1CCCCC1,-0.82,.
Cc1cc(/C=C(/C#N)S(C)(=O)=O)c2c(C)ccc(C(C)C)cc1-2,.,-1.5
COc1ccccc1N1CCN(CCCCNC(=S)Nc2cc(C)cc(C)c2)CC1,.,-0.3
Cc1n[nH]c(C)c1C(=O)CC1(O)C(=O)N(C(C)C)c2ccccc21 (stereo unspecified),1.66,-1.76
CC1CCN(C(=O)Cn2nc(C(F)(F)F)c3c2CCCC3)CC1,-0.69,0.64
O=C(Nc1ccccc1Cl)c1c(O)c2c([nH]c1=O)CCCC2,1.13,.
COC(=O)c1ccc2c(=O)n(C3CCCCC3)c(SC)nc2c1,.,-1.69
COc1ccc2cc1Oc1ccc(cc1)C[C@H]1c3cc(c(OC)cc3CCN1C)Oc1c(OC)c(OC)cc3c1[C@H](C2)N(C)CC3,1.95,.
CS(=O)(=O)N(CC(=O)O)c1cccc2ccccc12,-0.97,-1.79

No new results follow: two of the compounds above.
SMILES,HIV TAR-Tat,CDC25B CDK2 inh
CC1CN(C(=O)CCC(=O)N2CCN(C)CC2)c2ccccc2O1 (stereo unspecified),0.09,-2.12
CC(O)c1ccccc1-c1ccccc1C(C)O (stereo unspecified),.,-1.37

Next part.
SMILES,HIV TAR-Tat,CDC25B CDK2 inh
Cc1cc2oc(C(=O)N(Cc3cccc(Cl)c3)C3CCS(=O)(=O)C3)cc(=O)c2cc1C (stereo unspecified),-0.22,1.69
C=C(C)Cn1c(=O)c2c(nc3n2CCN3c2ccc(C)c(C)c2)n(C)c1=O,.,0.3
Cc1ccc(OCc2cc(=O)n3c(C)csc3n2)cc1,2.55,-1.2
Cc1ccc(N2C(=O)c3cccnc3C2Nc2ccc(F)cc2F)cc1 (stereo unspecified),1.79,0.99
CC1=C(C(=O)NC2CCCCC2C)C2(CCC(C)CC2)OC1=O (stereo unspecified),0.57,-0.91
CN1C(=O)Cc2cc(S(=O)(=O)N3CCN(C(c4ccccc4)c4ccccc4)CC3)ccc21,0.7,.
CCN(CC)c1nn2c(=O)c(C(=O)NCc3ccc4c(c3)OCO4)cnc2s1,1.07,.
CCOc1ccc(Nc2nc(N)c([N+](=O)[O-])c(N3CCCCC3)n2)cc1,0.56,.
C#CCOc1ccc(C2C(C#N)=C(N)Oc3cc4c(cc32)OCO4)cc1OC (stereo unspecified),.,-1.2
O=C(c1ccc(Br)cc1)N1CC2C3C=CC(C3)C2C1 (stereo unspecified),.,-0.64
N#Cc1cc([N+](=O)[O-])c(N2CCCC2)cc1N1CCCC1,.,-1.31
CCOC(=O)c1nc(NC2CCCCC2)c2ccccc2n1,0.4,.
COCCCNC(=O)c1oc2ccc3c(c2c1C)C=CC(C)(C)O3,1.32,0.61
Cc1c(C(=O)NCCC(C)C)oc2ccc3c(c12)C(=O)CC(C)(C)O3,.,-0.34
Cc1nc(N2CCCC2)ncc1C(=O)NCc1ccco1,2.1,.
CN(C)c1ccc(C(CNS(C)(=O)=O)N2CCc3ccccc32)cc1 (stereo unspecified),0.81,.
CSc1ccc(CNC(=O)c2ccc(Cl)cc2)s1,.,0.31
Cc1nnc2c(SCc3ccco3)nc3ccccc3n12,1.14,-1.26
O=C(CSc1ncnc2ccccc12)N1N=C(c2cccs2)CC1c1ccc(F)cc1 (stereo unspecified),.,-0.58
O=C(CSc1nc2ccccc2s1)Nc1ncc2c(n1)CC(c1ccco1)CC2=O (stereo unspecified),0.42,0.21
O=C1CC(=O)Nc2cc(S(=O)(=O)N3CCN(c4ccc(F)cc4)CC3)ccc2N1,0.17,.
O=C(O)c1ccnc(N2CCCC2)n1,-0.62,-1.81
CNC(=O)C1CCN(S(=O)(=O)c2c(C)noc2/C=C/N(C)C)CC1,1.2,.
O=C(CSc1nc2ccccc2o1)NCc1ccco1,2.36,-2.15
O=C(Oc1ccccc1)n1c(=S)oc2ccccc21,0.72,-2.36
Cc1[nH]nc(-n2cnnc2)c1NS(=O)(=O)c1ccc(Br)cc1,0.65,1.41
O=C(O)CSCC(=O)N1CCN(S(=O)(=O)c2cc(Cl)cc(Cl)c2)CC1,.,-1.31
O=C(NCC(c1ccco1)S(=O)(=O)c1ccccc1)C(=O)NC1CCCC1 (stereo unspecified),1.62,.
Cc1cc(-c2ccc(C)c(S(=O)(=O)NCc3ccccc3Cl)c2)on1,1.12,.
Cn1c(C(=O)NCc2cccnc2)cc2c(=O)[nH]c3ccccc3c21,.,-1.73
Cn1c(=O)c2c(nc(OCC3CCCCO3)n2Cc2ccc(F)cc2)n(C)c1=O (stereo unspecified),-0.55,-1.63
Cc1nnc2c(N3CCN(C)CC3)nc3ccccc3n12,.,-0.2
COc1ccc(CNS(=O)(=O)c2cc(-c3onc(C)c3C)ccc2OC)cc1OC,0.6,.
CCSc1ncc(Cl)c(C(=O)N(Cc2ccco2)C2CCS(=O)(=O)C2)n1 (stereo unspecified),0.49,-0.16
O=C1N(c2ccccc2)NC(c2ccco2)C12CCCCC2 (stereo unspecified),.,1.41
CCCNC(=O)Cc1c(C)[nH]n(-c2nc(C)c(C)s2)c1=O,-2.68,-0.65
CCCCn1cc(S(=O)(=O)c2ccc(CC)cc2)c(=O)c2cc(F)c(N3CCN(C)CC3)cc21,-0.32,.
Cc1cc(C)c2c(C)c(C(=O)Nc3ccc4nsnc4c3)oc2c1,0.68,-1.6
COc1ccc(OCc2nn3c(C(F)(F)F)nnc3s2)cc1,0.45,0.7
CCCN1c2ccccc2C(=C2SC(C(=O)OC)=C(C(=O)OC)S2)C(=S)C1(C)C,0.94,-2.87
c1ccc(OCCCCSCc2nc3ccccc3[nH]2)cc1,2.32,-3.49

Compound activity deposited in PubChem by Center for Chemical Genomics, University of Michigan.
